Vaccinia stage = blocks a specific stage of Vaccinia orthopoxvirus infection. AID 1053133. Vaccinia-infected cells, mCherry/Venus stage reporter fluorescence; active compounds read low; some inactives read as strong as hits. 89,000 compounds, 0.01% hits. activity change (mCherry), % (test concentration not listed);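 active = mCherry past -33% and 40 or more points under the early reporter, replicates agreeing; inconclusive = past -33% without that gap or agreement; tested in A549 cells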;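 note: scaled between vehicle wells and reference inhibitor wells; 23 nL library stock went into each well; one replicate is shown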
Vaccinia stage Venus = recorded beside Vaccinia stage, whose call it bears; activity change (Venus), %; measured here: Venus reporter, other viral stage;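 negative = less Venus signal; first of two replicates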
* hit, by the source's call; ? = inconclusive; / = not tested or not shown; & = joins results of further samples. Only part of the results is shown; rates above refer to the full screens.

SMILES	Vaccinia stage	Vaccinia stage Venus
CN(C)C(=O)C[C@H]1CC[C@H]2[C@@H](COc3ccc(NC(=O)c4ccc(F)c(F)c4)cc3C(=O)N2C)O1	10	9
COc1ccc(-c2cn(CC[C@@H]3CC[C@H](NC(=O)NC(C)C)[C@@H](CO)O3)nn2)cc1	-1	5
CNC(=O)C[C@H]1CC[C@@H]2[C@H](COc3ccc(NS(=O)(=O)c4cccc(F)c4)cc3C(=O)N2C)O1	7	2
CCC(=O)N1C[C@@H](C)[C@@H](OC)CN(C)C(=O)c2cc(NC(=O)c3ccccc3)ccc2OC[C@H]1C	13	5
C[C@H](CO)N1C[C@H](C)[C@@H](CN(C)Cc2ccc(-c3ccccc3)cc2)Oc2ccc(NC(=O)NC3CCCCC3)cc2C1=O	-18	-11
COc1ccccc1NC(=O)N1C[C@@H](O)COC[C@H]2O[C@H](CC(=O)NCc3ccccc3)CC[C@@H]21	10	12
N#C[C@@H]1[C@@H](c2ccc(-c3cccc(F)c3)cc2)[C@@H](CO)N1C(=O)c1cccnc1	14	2
C[C@H](CO)N1C[C@H](C)[C@@H](CN(C)CC2CCCCC2)Oc2c(NS(=O)(=O)c3ccc(F)cc3)cccc2C1=O	9	5
CO[C@H]1CC[C@H]2CCN(C)C(=O)CC3(CCCCC3)CN(C)C(=O)c3cccc(C#N)c3OC[C@H]1O2	19	9
COc1cccc(CN2[C@@H](CO)[C@@H](c3ccccc3)C23CN(C(=O)C2CCCC2)C3)c1	-13	-13
COc1ccc(-c2ccc([C@H]3[C@H]4CN(C(=O)C5CCC5)CC(=O)N4[C@H]3CO)cc2)cc1	-30	-30
C[C@H]1CCCCO[C@H](CN(C)C(=O)NC2CCCCC2)[C@@H](C)CN([C@@H](C)CO)C(=O)c2cc(NC(=O)Nc3ccccc3)ccc2O1	-23	-10
O=C(Cc1ccccc1)N1CC(=O)N2[C@H](CO)[C@@H](c3ccc(C4=CCCC4)cc3)[C@@H]2C1	-26	-17
CCC(=O)Nc1ccc2c(c1)C(=O)N(C)C[C@H](OC)[C@H](C)CN(C(=O)Cc1cccnc1)[C@H](C)CO2	4	1
COc1cccc(S(=O)(=O)Nc2ccc3c(c2)[C@@H]2C[C@H](CC(=O)NCc4cccc(F)c4)O[C@@H](CO)[C@@H]2O3)c1	?	/
CO[C@@H](CN(C)S(=O)(=O)c1ccc(Cl)cc1)[C@H](C)CN([C@@H](C)CO)S(=O)(=O)c1cccc(Cl)c1	?	/
O=C(CN1CCOCC1)N1[C@@H](CO)[C@@H]2c3ccccc3NC[C@@H]21	-1	5
O=C(C[C@H]1CC[C@H]2[C@@H](COC[C@@H](O)CN2C(=O)Nc2ccc(Cl)cc2)O1)NCCc1ccncc1	-16	-4
C[C@H]1CN([C@@H](C)CO)S(=O)(=O)c2ccc(-c3cccnc3)cc2O[C@@H]1CN(C)C(=O)CN(C)C	26	14
CCC(=O)N1C[C@H](C)[C@@H](OC)CN(C)C(=O)c2ccc(NC(=O)c3ccc(F)cc3)cc2OC[C@@H]1C	5	0
COc1cccc(-c2ccc([C@H]3[C@H](CO)N4CCCCN(S(=O)(=O)c5cccs5)C[C@@H]34)cc2)c1	-24	-20
CCS(=O)(=O)Nc1ccc2c(c1)C(=O)N(C)C[C@H](OC)[C@H](C)CN(C(=O)c1ccc3c(c1)OCO3)[C@@H](C)CO2	9	6
O=C(CC1CC1)N1CC(=O)N2[C@@H](CO)[C@@H](c3ccc(-c4cccnc4)cc3)[C@@H]2C1	24	8
C[C@@H]1CCCCO[C@H](CN(C)Cc2ccncc2)[C@@H](C)CN([C@@H](C)CO)C(=O)c2cc(NS(=O)(=O)c3cn(C)cn3)ccc2O1	20	12
COc1ccccc1NC(=O)N1CC(=O)N2[C@H](C1)[C@H](c1ccc(C#Cc3ccc(F)cc3)cc1)[C@@H]2CO	-33	-22
Continued.
SMILES	Vaccinia stage	Vaccinia stage Venus
Cc1ccc(S(=O)(=O)NCC[C@H]2CC[C@@H](NC(=O)Nc3ccccc3F)[C@H](CO)O2)cc1	-8	1
CCCC(=O)N1CC2(CCN(S(C)(=O)=O)CC2)c2c([nH]c3cc(OC)ccc23)[C@H]1CO	16	2
C[C@@H]1CN([C@H](C)CO)C(=O)c2cc(C#Cc3ccc(F)cc3)cnc2O[C@H]1CN(C)C(=O)c1ccccc1F	?	/
C[C@@H]1CN([C@H](C)CO)C(=O)c2cc(NC(=O)Nc3cccc4ccccc34)ccc2O[C@@H]1CN(C)Cc1ccccc1	-34	-29
Cc1ccccc1-c1ccc([C@H]2[C@@H](CO)N3CCCCN(CC4CC4)C[C@H]23)cc1	-24	-22
C[C@@H]1CCCCO[C@H](CN(C)C(=O)Nc2ccc(F)cc2)[C@H](C)CN([C@@H](C)CO)C(=O)c2cc(NC(=O)Nc3ccccc3)ccc2O1	-5	-10
C[C@@H]1CN([C@@H](C)CO)C(=O)c2cccc(NC(=O)c3ccc(-c4nccs4)cc3)c2O[C@H]1CN(C)Cc1ccc2c(c1)OCO2	?	/
CN(C)C(=O)C[C@@H]1CC[C@@H]2[C@H](COC[C@@H](O)CN2CC2CCCCC2)O1	18	11
Cc1ccc(S(=O)(=O)Nc2ccc3c(c2)C(=O)N([C@H](C)CO)C[C@H](C)[C@@H](CN(C)S(=O)(=O)c2ccc(C)cc2)O3)cc1	8	9
O=C(C1CC1)N1CC[C@@H]2[C@H](CO)Nc3ccc(-c4ccc(F)cc4)cc3[C@@H]21	-17	-20
COc1ccc(C#Cc2ccc3c(c2)O[C@H](CN(C)C(C)=O)[C@@H](C)CN([C@@H](C)CO)S3(=O)=O)cc1	-15	-10
O=C(c1cccc(F)c1)N1CC(=O)N2[C@@H](CO)[C@H](c3ccc(-c4ccccc4F)cc3)[C@@H]2C1	21	-11
COc1ccccc1-c1cnc2c(c1)C(=O)N([C@@H](C)CO)C[C@@H](C)[C@@H](CN(C)Cc1ccncc1)O2	7	-5
O=C(c1cnccn1)N1CC(=O)N2[C@H](CO)[C@H](c3ccc(C#CC4CCCCC4)cc3)[C@@H]2C1	-18	-12
C[C@@H]1CN([C@H](C)CO)C(=O)c2cc(NC(=O)CCCN(C)C)ccc2O[C@@H](C)CCCCO[C@@H]1CN(C)S(=O)(=O)c1ccccc1	6	1
O=C(C[C@H]1CC[C@H](NC(=O)Cc2ccccn2)[C@@H](CO)O1)NCCCN1CCOCC1	6	6
COCC#Cc1cnc2c(c1)C(=O)N([C@H](C)CO)C[C@H](C)[C@H](CN(C)C(=O)C1CC1)O2	26	4
C[C@@H]1CN([C@H](C)CO)S(=O)(=O)c2ccc(C#Cc3cccc(F)c3)cc2O[C@@H]1CN(C)S(=O)(=O)c1cn(C)cn1	?	/
COc1ccc(COC[C@]23NC(=S)N(C(=O)c4ccccc4)[C@H](c4ccccc4O2)[C@H]3CO[Si](C)(C)C(C)(C)C)cc1	-11	-10
O=C(NC1CCCC1)[C@@H]1[C@@H](CO)[C@@H]2Cn3c(ccc(C4=CCCCC4)c3=O)[C@H]1N2CC1CC1	17	8
C[C@@H]1CN([C@@H](C)CO)C(=O)c2cc(C3=CCCCC3)cnc2O[C@@H]1CN(C)Cc1ccccc1	-35	-20
CN(C)CCCNC(=O)C[C@@H]1CC[C@@H]2[C@H](COc3ccc(NC(=O)c4ccccc4F)cc3C(=O)N2C)O1	27	17
CC(C)CC#Cc1cnc2c(c1)C(=O)N([C@H](C)CO)C[C@@H](C)[C@@H](CN(C)Cc1cccc(F)c1)O2	-26	-14
COc1ccc(NC(=O)Nc2ccc3c(c2)C(=O)N([C@H](C)CO)C[C@H](C)[C@@H](CN(C)Cc2ccc(Cl)c(Cl)c2)O3)cc1	-25	-16
CO[C@H]1CN(C)C(=O)c2cc(NC(=O)c3cccc(F)c3)ccc2OC[C@H](C)NC[C@H]1C	-7	1

Entries above containing a cyano group:
SMILES	Vaccinia stage	Vaccinia stage Venus
N#C[C@@H]1[C@@H](c2ccc(-c3cccc(F)c3)cc2)[C@@H](CO)N1C(=O)c1cccnc1	14	2
CO[C@H]1CC[C@H]2CCN(C)C(=O)CC3(CCCCC3)CN(C)C(=O)c3cccc(C#N)c3OC[C@H]1O2	19	9

Complete entries from above:
CC(C)CC#Cc1cnc2c(c1)C(=O)N([C@H](C)CO)C[C@@H](C)[C@@H](CN(C)Cc1cccc(F)c1)O2 is listed as Vaccinia stage: -26; Vaccinia stage Venus: -14
Cc1ccccc1-c1ccc([C@H]2[C@@H](CO)N3CCCCN(CC4CC4)C[C@H]23)cc1 is listed as Vaccinia stage: -24; Vaccinia stage Venus: -22

Back to the main list, starting 4 compounds before the break.
SMILES	Vaccinia stage	Vaccinia stage Venus
CN(C)CCCNC(=O)C[C@@H]1CC[C@@H]2[C@H](COc3ccc(NC(=O)c4ccccc4F)cc3C(=O)N2C)O1	27	17
CC(C)CC#Cc1cnc2c(c1)C(=O)N([C@H](C)CO)C[C@@H](C)[C@@H](CN(C)Cc1cccc(F)c1)O2	-26	-14
COc1ccc(NC(=O)Nc2ccc3c(c2)C(=O)N([C@H](C)CO)C[C@H](C)[C@@H](CN(C)Cc2ccc(Cl)c(Cl)c2)O3)cc1	-25	-16
CO[C@H]1CN(C)C(=O)c2cc(NC(=O)c3cccc(F)c3)ccc2OC[C@H](C)NC[C@H]1C	-7	1
C[C@@H]1CN([C@@H](C)CO)C(=O)c2c(c3ccccc3n2C)-c2ccccc2CO[C@H]1CN(C)S(=O)(=O)c1ccsc1	?	/
COCC(=O)Nc1ccc2c(c1)[C@@H]1C[C@@H](CC(=O)NCc3ccc(OC)cc3)O[C@H](CO)[C@@H]1O2	11	7
O=C(Cc1ccccc1)N[C@@H]1C=C[C@H](CC(=O)N2CCCCC2)O[C@@H]1CO	10	10
COc1ccc(CN(C)C[C@@H]2Oc3c(NC(=O)Nc4ccc(F)cc4)cccc3C(=O)N([C@@H](C)CO)C[C@H]2C)cc1	-16	-11
COC(=O)C(CC#Cc1ccc2c(c1)[C@]1(C(=O)N2)[C@H](c2ccc(OCCO)cc2)N2[C@H](c3ccccc3)[C@H](c3ccccc3)OC(=O)[C@H]2[C@@H]1C(=O)Nc1nc2ccccc2s1)C(=O)OC	5	9
COc1ccc(S(=O)(=O)N[C@@H]2CC[C@H](CC(=O)O)O[C@@H]2CO)cc1	0	0
COc1cccc(NC(=O)N[C@H]2C=C[C@@H](CC(=O)N3CCCCC3)O[C@@H]2CO)c1	10	3
COc1ccc(C#Cc2ccc([C@H]3[C@H]4CN(C(=O)c5cccnc5)CC(=O)N4[C@H]3CO)cc2)cc1	-16	0
C[C@@H]1CN([C@@H](C)CO)S(=O)(=O)c2ccc(C3=CCCC3)cc2O[C@@H]1CN(C)Cc1ccccc1	?	/
CCS(=O)(=O)N1CC(=O)N2[C@H](CO)[C@@H](c3ccc(C#CC4CCCC4)cc3)[C@@H]2C1	-15	-7
C[C@H](CO)N1C[C@H](C)[C@H](CN(C)C(=O)Nc2cccc3ccccc23)Oc2ccc(NS(=O)(=O)c3ccccc3)cc2CC1=O	18	15
COc1ccc(S(=O)(=O)N(C)C[C@@H]2OCCCC[C@@H](C)Oc3ccc(NC(=O)CCCN(C)C)cc3C(=O)N([C@H](C)CO)C[C@H]2C)cc1	4	-7
C[C@@H]1CN([C@@H](C)CO)C(=O)c2cccc(NS(=O)(=O)c3ccc(F)cc3)c2O[C@@H]1CN(C)CC1CC1	13	11
O=C(C[C@@H]1CC[C@H]2[C@@H](COC[C@@H](O)CN2C(=O)Nc2cccc(Cl)c2)O1)NCC1CCCCC1	-14	-12
COc1cccc(-c2ccc([C@@H]3[C@H](CO)N4CCCCN(CC5CCOCC5)C[C@@H]34)cc2)c1	-25	-22
CC(C)c1cccc(NC(=O)C[C@H]2CC[C@H]3[C@@H](COc4ccc(NC(=O)NCc5ccccc5)cc4C(=O)N3C)O2)c1	-6	6
CCC(=O)Nc1ccc2c(c1)C(=O)N(C)C[C@H](OC)[C@H](C)CN(C(=O)COC)[C@H](C)CO2	15	9
CNC[C@H]1Oc2cc(-c3cccc(C(=O)N(C)C)c3)ccc2S(=O)(=O)N([C@@H](C)CO)C[C@H]1C	14	12
Cc1noc(C)c1NC(=O)N(C)C[C@H]1Oc2ccc(NC(=O)Cc3ccccc3)cc2C(=O)N([C@@H](C)CO)C[C@H]1C	3	1
COc1ccc(NC(=O)N2[C@@H]3CNC[C@H]2C3c2ccc(-c3ccc(F)cc3)cc2)cc1 (stereo partly drawn)	-3	2
O=S(=O)(c1cccc(F)c1)N1[C@@H]2CNC[C@H]1C2c1ccc(/C=C/c2ccccc2)cc1 (stereo partly drawn)	8&-8	8&13
CN1C(=O)c2cc(NS(C)(=O)=O)ccc2OC[C@@H]2O[C@H](CC(=O)NC3CCCCC3)CC[C@@H]21	18	4
C[C@H]1CN([C@@H](C)CO)S(=O)(=O)c2ccc(-c3ccc(F)cc3)cc2O[C@@H]1CN(C)C(=O)C1CCOCC1	-8	-10
COc1cccc(C(=O)N2C[C@H]3[C@@H](c4ccccc42)[C@@H](CO)N3C(=O)c2cccc(F)c2)c1	11	8
CCN1[C@@H]2c3ccc(C4=CCCCC4)c(=O)n3C[C@@H]2[C@@H](CO)[C@@H]1C(=O)NCc1cccc(OC)c1	4	4
CC(C)NC(=O)Nc1ccc2c(c1)C(=O)N([C@H](C)CO)C[C@H](C)[C@@H](CN(C)S(=O)(=O)c1cn(C)cn1)O2	15	7
Cc1noc(C)c1NC(=O)N(C)C[C@H]1Oc2ncc(/C=C/c3ccccc3)cc2C(=O)N([C@H](C)CO)C[C@H]1C	6	2
CCCNC(=O)N1[C@H](CO)[C@@H](c2ccccc2)C12CN(C(=O)C1CCCCC1)C2	5	10
COc1ccc(NC(=O)N(C)C[C@@H]2Oc3ccc(N(C)C)cc3C(=O)N([C@@H](C)CO)C[C@H]2C)cc1	8	13
